VDR inh: inhibitors of human vitamin D receptor. VDR-SRC2-3 peptide fluorescence polarization, 2 h. AID 504847. 400,000 tested, 0.93% active. P11473. Potency, µM, inactives show max response, negative = inhibition, hits mostly inhibitors; active means well fitted inhibition curve with a large enough effect; inconclusive means small, poorly fitted or top-dose-only effect, or another doubt; inactive means no such curve, though single readings can be large or run the other way; further: series mostly up to about 120 µM
Target sequence (P11473 whole entry, looked up): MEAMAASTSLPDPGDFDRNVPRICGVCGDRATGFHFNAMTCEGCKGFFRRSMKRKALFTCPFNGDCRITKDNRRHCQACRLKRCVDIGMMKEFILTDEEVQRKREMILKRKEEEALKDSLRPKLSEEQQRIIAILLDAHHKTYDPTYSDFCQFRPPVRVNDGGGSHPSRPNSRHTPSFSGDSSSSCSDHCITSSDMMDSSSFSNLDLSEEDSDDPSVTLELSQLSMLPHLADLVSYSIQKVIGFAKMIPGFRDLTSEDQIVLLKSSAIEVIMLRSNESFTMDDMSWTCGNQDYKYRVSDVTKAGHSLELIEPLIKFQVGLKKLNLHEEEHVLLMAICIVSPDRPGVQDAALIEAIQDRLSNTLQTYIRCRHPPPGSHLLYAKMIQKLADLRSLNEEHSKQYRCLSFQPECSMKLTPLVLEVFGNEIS
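Reagent solutions, kept cold and dark, are dispensed first; compounds are then pinned in at 23 nl, plates briefly spun, and incubated 2 h at ambient temperature. Inhibition of VDR–SRC2-3 peptide binding is read by fluorescence polarization.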
Starred values were filed as active, the others as inactive; ? = inconclusive; & = joins results of further samples. On the % scale 0 is the no-effect control and ±100 the full control effect; potency means the concentration at half of the fitted maximal effect.

SMILES	VDR inh
Cc1nnc(N/N=C/c2cc(C)n(-c3ccc(F)cc3)c2C)n1N	-16%
Cc1ccccc1OCc1nc(-c2ccc(NC(=O)c3ccc4c(c3)OCO4)cc2)no1	-8%
CCOc1ccccc1-c1nc(-c2ccc(C)nc2OC)no1	20%
Cc1c(-c2ccc(Cl)cc2Cl)nc2ccccc2c1C(=O)NCCN1CCOCC1	-13%
CC(C)OC(=O)C1C(=O)CC(C)(O)C(C(=O)OC(C)C)C1c1cccc([N+](=O)[O-])c1 (configuration not stated)	-1%
CCCCn1c(CN2CCN(c3ccc(F)cc3)CC2)nc2c1c(=O)n(C)c(=O)n2C	0%
COc1ccc(OCCn2cc(C=O)c3ccccc32)cc1	-4%
CC(C)N(CC(N)=O)c1ccc(S(=O)(=O)N2CCCC2)cn1	12%
O=C(NCC1CCCO1)c1csc2c1CCCCC2 (configuration not stated)	6%
CCN(C(=O)c1cc2c(=O)[nH]c3ccc(C)cc3c2s1)c1ccccc1F	4%
NS(=O)(=O)c1cc2c(cc1Cl)NC(CSCc1ccccc1)=NS2(=O)=O	3%&0%
COc1cc(/C=C/C=C2/CC/C(=C/C=C/c3ccc(O)c(OC)c3)C2=O)ccc1O	?
Cc1cccc(S(=O)(=O)NCC2CCCO2)c1 (configuration not stated)	-4%
COc1ccc(Cl)cc1S(=O)(=O)NC(C)C(=O)NCc1ccncc1 (configuration not stated)	-11%
Cc1c(NC(=O)CSc2n[nH]c(=O)n2-c2ccccc2)c(=O)n(-c2ccccc2)n1C	?
Cc1c(-c2ccccc2)c(=O)oc2c(CN3CCN(C)CC3)c(O)ccc12	-2%
Cc1ccccc1CNC(=O)CCCn1ncn2c(cc3occc32)c1=O	2%&8%
CC(=O)CCC(=O)N1CCCC(CNC(=O)c2ccc(-c3ccccc3)cc2)C1 (configuration not stated)	-8%
COc1ccc(N2CCN(S(=O)(=O)c3ccc4c(c3)NC(=O)CS4)CC2)cc1	-11%
O=C(O)CCN1C(=O)C2C3CC(C2C1=O)C1C(c2ccccc2)c2sc(=O)[nH]c2SC31 (configuration not stated)	-3%

3 entries already listed, arranged by formula weight, falling.
SMILES	VDR inh
NS(=O)(=O)c1cc2c(cc1Cl)NC(CSCc1ccccc1)=NS2(=O)=O	3%&0%
COc1cc(/C=C/C=C2/CC/C(=C/C=C/c3ccc(O)c(OC)c3)C2=O)ccc1O	?
Cc1c(-c2ccccc2)c(=O)oc2c(CN3CCN(C)CC3)c(O)ccc12	-2%

More entries.
SMILES	VDR inh
Cc1cccc(N2CC(C(=O)NCc3ccco3)CC2=O)c1C (configuration not stated)	2%
CC(=O)NCC(=O)NC(C(=O)Nc1ccc2c(c1)OCCO2)c1ccccc1 (configuration not stated)	-20%
O=c1c2ccccc2nc(-c2ccco2)n1Cc1ccccc1	16%
CCCCCC(=O)N1CC2(CC)CN(C(=O)CCCCC)CC(CC)(C1)C2=O	7%
Cc1ccc(OCC(=O)Nc2cccnc2Cl)cc1C	-23%
O=C(CSc1nnc(-c2cccs2)n1C1CC1)NC1CCS(=O)(=O)C1 (configuration not stated)	-4%
O=C(O)CCCN=Cc1c(O)c2ccccc2oc1=O	6%
COc1cc(OC)c(C(=O)Nc2ccc(S(=O)(=O)N3CCCCC3)cc2)cc1OC	-12%
O=C(O)c1ccccc1Nc1ccc(CCc2ccc(Cl)c(Cl)c2)cc1	35µM*
Cc1ccc2nc(-c3ccc(NC(=O)CN4C(=O)NC(C)(c5ccc(OC(F)F)cc5)C4=O)cc3)sc2c1 (configuration not stated)	-18%
Cc1cccc(Nc2cnn(C34CC5CC(CC(CC(=O)O)(C5)C3)C4)c(=O)c2Cl)c1	5%
COc1cccc(NC(=O)COc2cccnc2[N+](=O)[O-])c1	0%
COc1ccc(/C=N/NC(=O)c2cccnc2)cc1CN1CCN(c2ccc(F)cc2)CC1	-4%
COc1cccc(CNc2ccccn2)c1O	-11%
O=C(OCc1nc2ccsc2c(=O)[nH]1)c1cccc(S(=O)(=O)N2CCOCC2)c1	1%
COc1ccc(-n2nnc3c(=O)n(CC(=O)N4CCC(Cc5ccccc5)CC4)cnc32)cc1	-14%
N#Cc1c(-c2ccccc2)nc(N2CCN(Cc3ccccc3)CC2)[nH]c1=O	12%
Cc1cc(S(=O)(=O)Nc2ccc(C(=O)NCC(c3ccco3)N3CCCC3)cc2)ccc1F (configuration not stated)	3%
Cc1c(NC(=O)NC2CCCCC2)cccc1[N+](=O)[O-]	-13%
COc1ccc(NC(=O)C2=NNC(=O)CC2)cc1S(=O)(=O)N1CCCCC1	-7%
COC(=O)C(C)n1cnc2c(cnn2-c2ccc(Cl)cc2)c1=O (configuration not stated)	2%
Cc1ccc(CN(C)C(=O)c2ccccc2Oc2ccccc2)o1	?
COc1ccc(NC(=O)CNC(=O)Cc2cccc3ccccc23)cc1	-1%
CC1(c2nnc(-c3cccc(Cl)c3)o2)CC(c2ccc(Cl)cc2)=NO1 (configuration not stated)	-19%
C/C(=N/NC(=O)CNc1ccc(C)cc1)c1ccc(Br)s1	2%
CCN(c1ccccc1)S(=O)(=O)c1ccc2c(c1)CC(C)N2C(=O)C1CC1 (configuration not stated)	8%
O=C1CCCc2oc3c(cc(NS(=O)(=O)c4ccc5c6c(cccc46)C(=O)N5)c4ccccc43)c21	-7%
Cc1c(NS(=O)(=O)c2cc(C(=O)NCC3CCCO3)cc(Cl)c2Cl)c(=O)n(-c2ccccc2)n1C (configuration not stated)	-9%
CC1CCCCN1S(=O)(=O)c1ccc(S(=O)(=O)N(CC(=O)Nc2ccccc2)Cc2cccs2)cc1 (configuration not stated)	2%
Nc1c(C(=O)Nc2ccccc2)c2nc3ccccc3nc2n1CCCN1CCOCC1	0%
COc1ccc(Cn2c(=O)c3oc4ccccc4c3n(Cc3cccc(C)c3)c2=O)cc1	0%
COCCn1c(N)c(NCc2ccccc2)c(=O)n(CC(=O)Nc2cc(C)ccc2C)c1=O	0%
COc1cccc2c1c(NC(=O)c1cc(C)on1)nn2C	-20%
Cc1nn(C)c(C(=O)NNC(=S)Nc2ccc(Cl)cc2)c1[N+](=O)[O-]	1%
O=C(c1cc(-c2ccc(Cl)cc2)on1)N(Cc1cccc(F)c1)Cc1ccco1	25%
CCn1nnnc1SCC(=O)N1c2ccccc2NC(=O)CC1C (configuration not stated)	-16%
NC(=O)[C@H]1CC2(CC(c3cccc(NC(=O)COc4ccc(Cl)cc4)c3)=NO2)CN1C(=O)Cc1ccc([N+](=O)[O-])cc1 (some centres not stated)	4%
CC12CCC(=O)C=C1CCC1C2C(O)CC2(C)C1CCC2(O)C(=O)COC(=O)COCC(=O)O (configuration not stated)	9%
CCOc1ccccc1NC(=O)Nc1cccc(S(N)(=O)=O)c1	-6%
COc1ccccc1-c1cn[nH]c(=S)n1	?
CCOc1ccc(OCCCC(=O)NCCc2ccc(OC)cc2)cc1	3%
C=CC(=O)N1C/C(=C/c2ccc(F)cc2)C(=O)/C(=C\c2ccc(F)cc2)C1	10µM*
O=C(CSc1ccccc1)NCCc1ccccc1	0%
COc1ccc(/C=C/c2nnc(NC(=O)COc3cccc(C)c3)s2)cc1	-9%
C=C1[C@@H](O)[C@H](Cc2ccccc2)N(Cc2ccccc2Br)S1(=O)=O	?
Cc1cccc(NC(=O)c2c(NC(=O)c3ccco3)sc3c2CCC(C)C3)c1 (configuration not stated)	-14%
O=C1c2ccc(-c3nc4ccccc4o3)cc2C(=O)N1Cc1cccnc1	-1%
CCOc1ccc(NC(=O)c2ccccc2NC(=O)CN(C)CC(=O)Nc2ccc(C)cc2)cc1	-6%
COc1ccccc1C(=O)Nc1c(C(=O)Nc2ccccc2F)oc2ccccc12	-5%
COc1ccccc1-n1c(SCC(N)=O)nnc1-c1ccccc1	-1%
COC(=O)c1ccc2nc(NC(=O)CCS(=O)(=O)c3ccccc3)sc2c1	0%
COc1ccc(NC(=O)CSc2nnc(CNC(=O)c3ccco3)o2)cc1	15%
CCc1cc(CNC(=O)c2cccc(OC3CCN(S(C)(=O)=O)CC3)c2)on1	2%
COCCCN1C(=O)C(=O)/C(=C(/O)c2ccc(OC)cc2)C1c1ccc(O)c(OC)c1 (configuration not stated)	-16%
Cc1ccc(N2C(=N)SCC2=O)cc1Cl	-19%
O=C(CC1NCCNC1=O)Nc1cccc(F)c1 (configuration not stated)	-4%
COc1ccccc1Nc1c2c(nc3ccc(NC(=O)c4cccc(F)c4)cc13)CCCC2	25%
CC(=O)NC12CC3CC(C1)CC(C(=O)Nc1nccs1)(C3)C2	8%
O=C(c1cc(-c2ccc(Cl)cc2)on1)N1CCN(c2ccc(F)cc2)CC1	-15%
O=C(O)CCC(=O)NNC(=O)c1cccc(Cl)c1	-1%

Quoted at random: 3 compounds from above
SMILES	VDR inh
COCCCN1C(=O)C(=O)/C(=C(/O)c2ccc(OC)cc2)C1c1ccc(O)c(OC)c1 (configuration not stated)	-16%
C=C1[C@@H](O)[C@H](Cc2ccccc2)N(Cc2ccccc2Br)S1(=O)=O	?
Cc1cccc(NC(=O)c2c(NC(=O)c3ccco3)sc3c2CCC(C)C3)c1 (configuration not stated)	-14%

A different layout for part of the listing above:
COc1ccc(NC(=O)CSc2nnc(CNC(=O)c3ccco3)o2)cc1
  VDR inh = 15%

CCc1cc(CNC(=O)c2cccc(OC3CCN(S(C)(=O)=O)CC3)c2)on1
  VDR inh = 2%

Looked up above:
Under VDR inh, COC(=O)c1ccc2nc(NC(=O)CCS(=O)(=O)c3ccccc3)sc2c1 shows 0%
Under VDR inh, O=C1c2ccc(-c3nc4ccccc4o3)cc2C(=O)N1Cc1cccnc1 shows -1%

The results go on:
SMILES	VDR inh
COc1ccc(/C=N/NC(=O)c2ccc(Br)cc2)cc1CN1CCOCC1	-19%
Oc1ccc(Cl)cc1-c1cc(-c2cccc(Br)c2)n[nH]1	8%
Cc1ccccc1C(=O)Nn1cnnc1	-9%
Cc1cccc(Oc2coc3cc(OC(=O)c4cc5ccccc5oc4=O)ccc3c2=O)c1	-11%
N#Cc1ccccc1S(=O)(=O)N1CCC(C(=O)Nc2cccc(C(=O)NC3CC3)c2)CC1	16%
Cc1ccc(/C=C2\SC(N3CCN(C(c4ccccc4)c4ccccc4)CC3)=NC2=O)o1	?
CCOc1ccccc1NC(=O)C1CCN(S(=O)(=O)c2ccc(Br)cc2)CC1	12%
Cc1ccc(C2=NN(C(=O)CN3C(=O)c4ccccc4S3(=O)=O)C(c3ccco3)C2)cc1 (configuration not stated)	1%
CCOC(=O)C1(CCOC)CCN(C/C=C/c2ccccc2OC)CC1	-2%
O=C(c1cccc(S(=O)(=O)N2CCCC2)c1)N1CCN(S(=O)(=O)c2cccc(Cl)c2)CC1	-2%
COC(=O)c1cc2c(ccn2-c2ccc(F)cc2)n1Cc1cccc(OC)c1	-22%
CSc1cccc(NC(=O)N2CCN(S(=O)(=O)c3ccc4c(ccn4C)c3)CC2)c1	5%
CCOc1ccc(NS(=O)(=O)c2ccc3[nH]cc(C(=O)NCc4ccccc4)c(=O)c3c2)cc1	4%
Cc1cc(C)n2nc(C(=O)OCC(=O)NCc3ccc(F)cc3)nc2n1	5%
O=C(O)c1ncc(Cl)c(Cl)c1Cl	-1%&13%
Cc1occc1-c1nnc(SCC(=O)c2c(N)n(C3CC3)c(=O)[nH]c2=O)n1C	-9%
CCOc1ccc2nc(N3CCCC(C(=O)NCCCOC)C3)sc2c1 (configuration not stated)	6%
Cc1ccc(NC(=O)c2cnccn2)cc1S(=O)(=O)N1CCCCCC1	-14%
O=S(=O)(c1ccc(F)cc1)N1CCC(Oc2cccc(C(F)(F)F)c2)CC1	10%
O=[N+]([O-])c1cccn2cc(-c3ccc(Br)cc3)nc12	-11%
O=C(NCCc1ccccc1)c1cc(-c2ccc(Br)cc2)on1	-24%
Cc1cccc(S(=O)(=O)NC(Cc2c[nH]c3ccccc23)C(=O)O)c1 (configuration not stated)	14%
COc1ccc(CNC(=O)CN(c2ccccc2OC)S(=O)(=O)c2cccs2)cc1	-11%
Cc1ccc([N+](=O)[O-])cc1NC(=O)CCCOc1ccccc1	-9%
COc1ccc(CCNC(=O)c2cc(=O)c3cc(C)ccc3o2)cc1	-11%
COc1cccc(/C=N/NC(=O)CCc2n[nH]c(=O)[nH]c2=O)c1O	?
O=C(CCCOC(=O)c1cccnc1Cl)c1ccc(Br)cc1	-17%
Brc1cccc(CNCCCN2CCOCC2)c1	-28%
Cc1oc(C)c(C(=O)O)c1COc1ccc(C(=O)O)cc1	-1%
CC(C)(C)N(Cc1ccccc1)C(=O)COC(=O)CSc1ccc([N+](=O)[O-])cc1	-30%
CCCc1nc(SCC(=O)NC2CC2)c2c(C)c(C)sc2n1	12%
CC(=O)NC(CC(=O)OC(C)C(=O)Nc1ncc(Cl)cc1Cl)c1ccccc1 (configuration not stated)	10%
O=C(CSc1nnc(CNc2ccc(F)cc2)o1)c1ccccc1	-1%
Cc1nc([N+](=O)[O-])cn1CCCCN1C(=O)c2ccccc2C1=O	-13%
C=C1C[C@@]23CC4C5[C@@]6(C)C[C@H](O)C[C@@]57C2[C@H](O)[C@@H]1[C@H](O)[C@H]3[C@H]7N4C6	1%
O=S(=O)(Nc1ccc(S(=O)(=O)Nc2cccc3ccccc23)cc1)c1ccccc1	-4%
COc1ccccc1CNC(=O)CSc1ccc(C(=O)Nc2ccccc2OC)cc1[N+](=O)[O-]	8%
O=c1[nH]c(CSc2nnc(-c3ccncc3)n2Cc2ccco2)nc2ccccc12	14%
COc1ccccc1C(CNC(=O)C(C)(C)Oc1ccc(Cl)cc1)N1CCCC1 (configuration not stated)	-9%
CC(C)OC(=O)/C(=C/c1ccc2c(c1)c1ccccc1n2C)NC(=O)c1ccccc1	-5%

Source: PubChem BioAssay (National Center for Advancing Translational Sciences (NCATS))

This is a subset; count on the stated rates, not on these rows.
